Autofluor counter = flagged as autofluorescent in microsphere protease counterscreen | actives 3.1% (n = 360,000) | fluorescence intensity (concentration not given with the values) | compound autofluorescence counterscreen, microsphere flow cytometry; stronger effect = higher value | AID 624483;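 active = at least 3 SD above the mean of all compounds, about 16000 in these data; inconclusive = too few beads counted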;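 note: 100 nL of 1 mM stock went into each well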
Mtb hypoxia inh = reduces hypoxia-regulated biosensor signal in M. tuberculosis | M. tuberculosis hypoxia-regulated fluorescent reporter, fluorescence | fluorescence inhibition, % (test concentration not listed) | actives 0.1% (n = 300,000) | AID 1159583;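 active = 35 to 45% if threefold the growth effect, above 45% if 1.5-fold the growth effect; inactive = the rest, general growth blockers included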;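 note: wells of about 50 µL received 100 nL stock; 0% = vehicle wells and 100% = reference inhibitor wells; whole bacteria with a GFP reporter of the hypoxia response; strong numbers were not always called active; many hits fall short of the cut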
Sa ugtP lethal = kills S. aureus RN4220 lacking UgtP; growth inhibition, % (concentration not given with the values); AID 1259309; S. aureus RN4220 ugtP deletion, OD600 growth, 16 h; some inactives read as strong as hits; actives 0.54% (n = 330,000);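 active = z-score under -3 and OD600 up to 0.15 on both plates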;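 note: plate controls were untreated wells for no effect and antibiotic for full effect; wells of about 80 µL received 100 nL stock; the first replicate is given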
BJeLR viability = kills HRASV12-expressing BJeLR cells; AID 1554; BJeLR (HRASV12) viability, CellTiter-Glo ATP luminescence, 48 h; reference of the scale not given here; actives 0.17% (n = 300,000); inhibition, % (concentration not given with the values);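 active = replicate mean above 50%; inconclusive = above 50% but judged a plate artefact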;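 note: 50 nL library stock added to about 25 µL; numbers are from one replicate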
Sa RN4220 lethal = kills Staphylococcus aureus RN4220 | S. aureus RN4220 growth, OD600, 16 h | inhibition, % (concentration not given with the values) | actives 0.33% (n = 330,000) | AID 1259311;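 active = z-score of -3 or lower and OD600 up to 0.18 on both plates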;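 note: plate controls were untreated cells for no effect and reference antibiotic for full effect; stock transfer was 100 nL into about 80 µL; one replicate is shown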
PrP 5UTR inh = suppresses PrP 5' UTR mRNA reporter expression. cell-based PrP 5' UTR mRNA reporter, plate reader. inhibition, % (test concentration not listed). actives 0.35% (n = 340,000). AID 488862;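 active = every replicate at 50% or more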;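 note: 0 = median of the neutral control wells; tested in H4 reporter cells; numbers are from one replicate; inactives centre near -14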
Mtb hypoxia inh growth = second read-out of Mtb hypoxia inh, no call of its own (marks repeat the call); growth inhibition, %; measured here: M. tuberculosis growth (absorbance);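 0% = vehicle and 100% = reference antibiotic; read after six days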
The depositor's hits bear a star; ? = inconclusive; . = not tested or not shown.

SMILES	Autofluor counter	Mtb hypoxia inh	Mtb hypoxia inh growth	Sa ugtP lethal	BJeLR viability	Sa RN4220 lethal	PrP 5UTR inh
Cn1cnnc1SCC(=O)OCN1C(=O)c2ccccc2C1=O	4848	.	.	10	-10	13	-10
COc1ccccc1NC(=O)COC(=O)c1ccc2c(c1)OCCO2	3348	11	9	4	.	7.3	-18
Cc1ccc(-n2c(C)cc(C(=O)CN3CCOCC3)c2C)cc1	4543	11	6	6	5	7.0	-43
CCOC(=O)C1CCN(C(=O)c2ccccc2CCc2ccccc2)CC1	3707	-1	6	3	23	10	-25
Cc1ccc(NC(=O)CSc2nc(O)cc(=O)n2C)cc1	4789	.	.	5	5	-0.9	3
O=C(CCC(=O)Nc1ccccc1)NNS(=O)(=O)c1ccccc1[N+](=O)[O-]	4513	-12	-3	-1	2	-0.2	-8
CCOc1ccc(OCc2ccc(C(=O)N3CCCC(C)C3)cc2)cc1 (stereo not given)	2032	-1	3	5	5	-0.5	-17
O=C(CSC1=NC(=O)C(Cc2ccccc2)C(=O)N1)Nc1ncccn1 (stereo not given)	.	4	8	1	-9	0.1	.
Cn1cccc1C(=O)OCC(=O)c1ccc(Br)s1	3445	-27	9	1	.	12	-72
CCC(CC)NC(=O)CO/N=C/c1ccc(Cl)cc1Cl	3815	.	.	.	-2	.	-38
Cc1nc2ccc(NC(=O)c3ccccc3)cc2s1	2597	0	-4	-2	3	-5.2	-66
COc1ccccc1N1CCN(S(=O)(=O)CC23CCC(CC2=O)C3(C)C)CC1 (stereo not given)	10213	-5	4	0	-1	6.0	7
Cc1nc(Cc2nnc(SCC(=O)N3CCN(c4ccccc4)CC3)o2)cs1	?	-7	3	-5	.	-1.4	-6
Cc1cccc(C)c1OP(N)(=O)Oc1c(C)cccc1C	4431	12	4	-9	-7	8.8	-1
COc1ccccc1CNc1nc2nc(C)c(Cl)c(=O)n2[nH]1	21476*	0	0	1	-1	0.0	-39
CC(C)(C)C(=O)CSc1nc2ncc(Br)cc2[nH]1	4456	.	.	1	2	-1.7	-20
CCCC(NCC(=O)Nc1cc(S(=O)(=O)N2CCOCC2)ccc1OC)c1ccccc1 (stereo not given)	2856	-2	-2	8	.	0.7	-9
Cc1nnc(SCC(=O)N2CCc3ccccc32)s1	7793	1	4	1	-6	7.0	-45
Cc1ccc(NP(=O)(Nc2ccc(C)cc2)Nc2ccc(C)cc2)cc1	3426	7	2	-3	5	-11	0
COc1ccc2cc(C(c3nnnn3C3CCCC3)N3CCCCCC3)c3nnnn3c2c1 (stereo not given)	3818	.	.	5	1	12	-19

Random excerpt: two records from the list
SMILES	Autofluor counter	Mtb hypoxia inh	Mtb hypoxia inh growth	Sa ugtP lethal	BJeLR viability	Sa RN4220 lethal	PrP 5UTR inh
Cc1nnc(SCC(=O)N2CCc3ccccc32)s1	7793	1	4	1	-6	7.0	-45
COc1ccccc1CNc1nc2nc(C)c(Cl)c(=O)n2[nH]1	21476*	0	0	1	-1	0.0	-39

Continued.
SMILES	Autofluor counter	Mtb hypoxia inh	Mtb hypoxia inh growth	Sa ugtP lethal	BJeLR viability	Sa RN4220 lethal	PrP 5UTR inh
CCCCCNc1nc(-c2ccccc2)nc(-n2ccnc2)n1	3907	14	10	1	3	-2.3	-14
COc1ccc(-c2c(C(F)(F)F)nn(C)c2NC(=O)c2cccnc2)cc1	.	13	7	1	-1	3.2	-8
COc1ccc(C=C(c2ccc(OC)cc2)c2ccc(OC)cc2)cc1	3072	5	8	52	-1	3.7	-6
N/C(=N\C(=S)Nc1ccccc1)c1ccccc1	3743	-2	4	3	-16	-6.3	.
C#CC(CC)(CC)NC(=O)Nc1ccccc1C(=O)OC	2544	7	2	-3	-4	2.6	-17
CC(=O)N1CCc2c(sc(NC(=O)c3cccc(N4C(=O)CCC4=O)c3)c2C(N)=O)C1	5641	2	4	4	-1	3.1	-8
CC1(C)C2([N+](=O)[O-])CNCC1([N+](=O)[O-])CNC2	2263	13	5	5	-7	-3.7	-17
CCCCCCCC1(C)NC(=O)N(CC(=O)Nc2cc(C)on2)C1=O (stereo not given)	4277	-12	2	-9	-2	4.2	-16
O=C1Nc2ccccc2OCc2c1cccc2[N+](=O)[O-]	3806	12	6	9	-4	19	-68
CC1=C(C(=O)N2CCOCC2)C(c2ccc(Br)cc2)NC(=S)N1c1ccccc1 (stereo not given)	3325	14	15	10	-12	-0.5	-25
CC1CN(C(=O)c2ccc(-c3ccccc3Cl)o2)CC(C)O1 (stereo not given)	?	14	4	5	1	3.0	-33
CCOc1ccc(C(=O)N2CCN(c3ccccn3)CC2)cc1OCC	3814	13	12	14	11	5.1	-12
Cc1ccc(-n2c(C)nnc2SCC(=O)N(C)c2c(N)n(Cc3ccccc3)c(=O)[nH]c2=O)cc1	2820	5	3	5	.	2.9	4
CC(=O)NC(Cc1ccc(O)cc1)C(=O)NN (stereo not given)	4961	15	13	5	7	1.9	-26
O=C(Nc1ccc2c(c1)C(=O)NC2=O)c1ccccc1Cl	5650	5	7	17	-5	5.7	-4
C#CCOCCOCCOCCNc1nc(N2CCN(C(=O)[C@H]([C@@H](C)CC)n3cc([C@@H](N)CO)nn3)CC2)nc(N2CCN(C(=O)[C@H]([C@@H](C)CC)n3cc([C@@H](N)Cc4ccc(O)cc4)nn3)CC2)n1	4775	.	.	.	2	.	-11
CCOC(=O)C1CCCN(C(=O)CCc2nc3sc4c(c3c(=O)[nH]2)CCCC4)C1 (stereo not given)	3425	4	10	1	.	8.3	-17
COc1ccc(CCN2CC(C(=O)OCC(=O)N(C)Cc3ccccc3)CC2=O)cc1OC (stereo not given)	2853	-2	-3	0	.	1.6	-20
CCCCN(CC)CCNC(=O)C1CCN(S(=O)(=O)c2cccc3nsnc23)CC1	5486	8	4	5	-13	0.8	-19
COc1ccc(C2C=C(C)Nc3ncnn32)cc1 (stereo not given)	4763	13	-2	2	1	0.9	-12

In the list so far, these have an NH in an aromatic ring.
SMILES	Autofluor counter	Mtb hypoxia inh	Mtb hypoxia inh growth	Sa ugtP lethal	BJeLR viability	Sa RN4220 lethal	PrP 5UTR inh
COc1ccccc1CNc1nc2nc(C)c(Cl)c(=O)n2[nH]1	21476*	0	0	1	-1	0.0	-39
CC(C)(C)C(=O)CSc1nc2ncc(Br)cc2[nH]1	4456	.	.	1	2	-1.7	-20
Cc1ccc(-n2c(C)nnc2SCC(=O)N(C)c2c(N)n(Cc3ccccc3)c(=O)[nH]c2=O)cc1	2820	5	3	5	.	2.9	4
CCOC(=O)C1CCCN(C(=O)CCc2nc3sc4c(c3c(=O)[nH]2)CCCC4)C1 (stereo not given)	3425	4	10	1	.	8.3	-17

Additional compounds
SMILES	Autofluor counter	Mtb hypoxia inh	Mtb hypoxia inh growth	Sa ugtP lethal	BJeLR viability	Sa RN4220 lethal	PrP 5UTR inh
COc1ccc2nc(COC(=O)c3ccco3)c(C(C)=O)[n+]([O-])c2c1	2456	.	.	5	-7	3.8	-14
Nc1nc(CN2CCc3ccccc3C2)nc(Nc2ccccc2)n1	3440	.	.	4	8	-2.5	-5
O=C1NCCCC1C(=O)N/N=C/c1ccccc1[N+](=O)[O-] (stereo not given)	6234	.	.	.	0	.	-44
COC(=O)c1cc(S(=O)(=O)NCC2CCN(CCc3cccs3)CC2)c[nH]1	6907	11	5	1	12	1.3	-7
O=P(C(c1ccc2c(c1)OCO2)N1CCOCC1)(N1CCOCC1)N1CCOCC1 (stereo not given)	4239	-6	3	-2	-4	-3.4	-15
Oc1ccccc1C=NC1CCCCC1N=Cc1ccccc1O (stereo not given)	4824	3	4	10	-7	3.0	1
Cc1ccccc1NC(=O)NCc1ccco1	4327	-1	8	0	-1	0.4	1
O=C(CSc1nnc(SCc2ccccc2)s1)N/N=C/c1ccc(Cl)cc1Cl	2143	.	.	.	-6	.	-26
O=C(COC(=O)CN1C(=O)c2ccccc2C1=O)Nc1ccccc1[N+](=O)[O-]	4762	-4	0	4	.	4.8	1
COCCNC(=O)c1oc2ccc3c(c2c1C)C(O)CC(C)(C)O3 (stereo not given)	3583	-6	7	6	1	3.1	-3
C=CCn1c(SCC(=O)Nc2ccc(C(=O)O)cc2)nnc1-c1cccnc1	4140	-4	0	9	-4	5.3	2
CNc1oc(-c2ccccc2Cl)nc1P(=O)(c1ccccc1)c1ccccc1	1982	7	-5	-29	-7	-3.6	-9
CCN(CC)C(=O)CCc1nc2sc3c(c2c(=O)[nH]1)CCCC3	8272	10	8	8	-6	3.7	-14
Cc1ccc2ccc3ccc(C)nc3c2n1	6285	.	.	11	-9	5.1	41
O=C(Nc1cccc(Cl)c1)N1CCN(C/C=C/c2ccccc2)CC1	5755	18	6	-11	-17	2.9	-25
CCO[C@H]1OC(C(=O)N2CCN(Cc3ccc4c(c3)OCO4)CC2)=C[C@@H](c2ccc(Br)cc2)[C@@H]1CCCO	3857	.	.	.	2	.	-7
N/C(=N\NC(=O)c1ccccc1)c1cc2ccccc2oc1=O	2337	-7	0	9	-8	0.6	-92
Cc1ccc(NC(=O)Nc2cccs2)c(Cl)c1	3176	-2	2	13	3	-0.6	-73
CCCN1C(=O)C2(OCCO2)c2cc(Cl)ccc21	3722	6	9	4	4	4.1	-21
CCOC(=O)c1sc(NC(=O)c2ccc(S(=O)(=O)N3CCCCCC3)cc2)nc1-c1ccccc1	2491	4	-3	5	-5	1.4	-20
COc1ccc(CN2C(=O)CC(Cc3ccc(C)cc3)C2=O)cc1OC (stereo not given)	2568	9	4	5	-8	4.4	-20
Cc1ccccc1NC(=O)COc1coc(CN2CCCc3ccccc32)cc1=O	6575	8	2	-3	11	-1.0	-3
N=c1cc(C2(O)CCCCC2)n2c(nc3ccccc32)s1	?	-1	2	-8	9	0.4	-9
COc1ccc(CCNC2CCc3ccccc3C2)cc1 (stereo not given)	.	0	-5	3	9	0.9	-46
COc1ccc(NC(=O)CSc2nnc(-c3ccncc3)o2)c([N+](=O)[O-])c1	5652	2	13	10	5	-3.9	-27
Cc1cc(S(=O)(=O)Nc2ccc(C(=O)NCc3ccncc3)cc2)ccc1F	5863	4	-4	5	0	2.3	-28
C=CCNC(=O)c1scc2c1CCCC2	4672	.	.	-5	3	5.5	-22
CCCCn1c(N)c(N(CC(C)C)C(=O)CCC2CCCCC2)c(=O)[nH]c1=O	5874	5	-1	9	7	0.4	8
Cc1cc(C(=O)C(=O)N(C)C)c(C)n1-c1ccc([N+](=O)[O-])cc1	9686	-5	18	3	-16	2.9	-45
Cc1ccc(S(=O)(=O)Nc2ccccc2C(=O)N2CCN(C)CC2)cc1	6310	0	6	-2	-2	0.2	-7
CCCCSc1nc(O)c(C2OC(=O)c3c2ccc(OC)c3OC)c(=O)n1-c1ccccc1 (stereo not given)	2988	-3	11	3	3	13	-13
O=C(CN1C(=O)C2C3C=CC(C3)C2C1=O)N1CC=C(c2ccccc2)CC1 (stereo not given)	2592	.	.	4	7	0.3	-1
CCC1(CC)N=C(c2ccccc2)C(=S)N1	4416	0	-7	15	23	4.7	-49
COC(=O)c1c(NC(=O)c2nn(C)cc2Cl)sc2c1CCCC2	20893*	3	4	-1	4	-6.6	-10
Cc1c(N(C)C(=O)c2ccco2)c(=O)n(-c2ccccc2)n1C	4064	5	-5	3	14	1.8	-13
Cc1cccc(C(=O)NCCNC(=O)c2ccccn2)c1	6059	5	3	3	0	2.0	-2
Nc1ccc(N(CCO)CCO)cc1	4273	3	1	10	3	5.2	-34
CNC(=O)c1ccsc1NC(=O)CS(=O)(=O)c1ccccc1	5320	10	9	7	-4	3.4	0
CCN(C(=O)Cn1cnc2c1c(=O)n(C)c(=O)n2C)C1CCS(=O)(=O)C1 (stereo not given)	7923	7	6	7	.	4.9	-32
O=C(N/N=C1/CCSC1)c1cccc([N+](=O)[O-])c1	3112	.	.	.	15	.	-7
CC(NC(=O)C(=S)N1CCN(C)CC1)c1ccccc1 (stereo not given)	3980	9	6	6	-3	3.6	-25
O=S(=O)(c1ccccc1)N1CCSC1c1ccco1 (stereo not given)	2238	.	.	-2	-6	3.1	-22
COc1ccccc1N1CC(C)(C)C(=O)N(C(=O)c2c(F)cccc2Cl)C1=S	5862	6	6	6	-2	3.9	-27
Cc1ccc(OC(=O)CCC(=O)N2CCc3ccccc32)cc1	5234	-1	2	7	2	3.6	-23

Screens (PubChem BioAssay)
